# Screening results deposited in PubChem by National Center for Advancing Translational Sciences (NCATS).
# 2A StopGo: FMDV 2A StopGo reporter, luciferase signal | actives 1.2% (n = 410,000) | AID 1159524 | Potency, µM (top dose mostly 57.9 µM), for the others: at the top dose signal change, negative = less light | human cells with a luciferase reporter of 2A StopGo recoding; control for the full effect not named in the record; active = well fitted falling curve with a large enough effect; inconclusive = small, poorly fitted or top-dose-only effect; inactive = no such curve, though single readings can be large or run the other way; tested in HEK293T cells; further: on the % scale 0 is the no-effect control and ±100 the full control effect; nearly all actives have a fitted effect of over 45% in size; luciferase light after 4 h
# Cruzain inh Det: cruzain (T. cruzi) inhibition with detergent | P25779 | purified cruzain, Z-FR-AMC fluorescence, 0.01% Triton | Potency, µM, without a hit: max response, negative = inhibition, actives largely listed as inhibitors | actives 0.43% (n = 200,000);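 further: plate controls were neutral wells for no effect and buffer without enzyme for full effect; nearly all actives have a fitted effect of over 40% in size; top concentration of the series not given in the record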
# Target sequence (P25779 123-467 limits assumed): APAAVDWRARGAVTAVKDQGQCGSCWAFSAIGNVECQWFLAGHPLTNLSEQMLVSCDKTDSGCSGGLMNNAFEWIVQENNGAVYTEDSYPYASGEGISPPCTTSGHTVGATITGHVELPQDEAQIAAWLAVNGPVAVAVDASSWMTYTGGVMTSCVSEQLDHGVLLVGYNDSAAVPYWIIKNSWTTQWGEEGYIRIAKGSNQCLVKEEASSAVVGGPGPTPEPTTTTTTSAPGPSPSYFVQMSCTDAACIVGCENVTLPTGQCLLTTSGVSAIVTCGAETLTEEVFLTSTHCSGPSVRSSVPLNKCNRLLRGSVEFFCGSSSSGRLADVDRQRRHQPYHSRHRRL
#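 In this qHTS format, compounds are incubated with 1.5 nM cruzain for 15 min at room temperature before 2 uM Z-FR-AMC is added. Release of AMC is followed at 360/450 nm, and progress is taken as the 60 s fluorescence difference.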
# Cruzain noTriton: cruzain (T. cruzi) inhibition without detergent. P25779. purified cruzain, Z-FR-AMC fluorescence, no detergent. Potency, µM, for inactives: max response, negative = inhibition, most hits filed as inhibitors. actives 2.3% (n = 200,000). AID 1476;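 further: plate controls were enzyme without inhibitor for no effect and buffer without enzyme for full effect; nearly all actives have a fitted effect of over 40% in size; top concentration of the series not given in the record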
#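 Purified cruzain at 1.5 nM, pre-incubated 15 min with compound at room temperature in 100 mM sodium acetate pH 5.5, 5 mM DTT, 0.00005% Triton X-100. Reaction started with 2 uM Z-FR-AMC; AMC fluorescence increase over 60 s gives rate.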
# SARS PLpro yeast: inhibitors of SARS-CoV papain-like protease in yeast; S. cerevisiae expressing SARS-CoV PLpro, growth rescue; control for the full effect not named in the record; Potency, µM (highest dose often 32.9 µM), without a hit: top-dose activity, positive = growth rescue; actives 0.19% (n = 330,000); active means well fitted rising curve with a large enough effect; inconclusive means small, poorly fitted or top-dose-only effect; inactive means no such curve, though single readings can be large or run the other way; further: 0% is about no effect; nearly all actives have a fitted effect of over 55% in size; growth read by luminescence after 48 h
# Lassa entry inh: Lassa virus entry inhibition; Lassa virus pseudotype entry inhibition, cell reporter; control for the full effect not named in the record; Potency, µM (top dose mostly 37.9 µM), without a hit: top-dose activity change, negative = inhibition, actives largely listed as inhibitors; actives 1.2% (n = 300,000); AID 540256; active means well fitted inhibition curve with a large enough effect; inconclusive means small, poorly fitted or top-dose-only effect, or effect the other way; inactive means flat fitted curve, though single readings scatter; tested in HEK293 cells; further: on the % scale 0 is the no-effect control and ±100 the full control effect; nearly all actives have a fitted effect of over 50% in size; luciferase read-out
# Marburg entry inh: inhibitors of Marburg virus binding or cell entry; Marburg virus pseudotyped entry inhibition, cell reporter; control for the full effect not named in the record; about a third of the inactives were read at about 46 µM; Potency, µM (titrated, usually from 37.8 µM), inactives show at the highest dose activity change, negative = inhibition, hits mostly inhibitors; actives 1.8% (n = 300,000); AID 540276; active = well fitted inhibition curve with a large enough effect; inconclusive = small, poorly fitted or top-dose-only effect, or effect the other way; inactive = flat fitted curve, though single readings scatter; tested in HEK293 cells; about a fifth of its hits are not listed in these tables; further: on the % scale 0 is the no-effect control and ±100 the full control effect; luciferase read-out
# NS1 inh: influenza NS1 inhibition; S. cerevisiae slowed by influenza A NS1, growth recovery by OD600; AID 2326; actives 0.4% (n = 270,000); Potency, µM (doses to about 46.1 µM), for the others: at the highest dose activity, positive = more growth; active means well fitted rising curve with a large enough effect; inconclusive means small, poorly fitted or top-dose-only effect; inactive means no such curve, though single readings can be large or run the other way; further: nearly all actives have a fitted effect of over 50% in size
#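 Compounds were scored for reversing the slow growth caused by influenza A NS1 in S. cerevisiae, measured by optical density at 600 nm. Assay medium contained 2% galactose at pH 6.0; NS1-free yeast of the same strain were the positive control.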
# RE007 growth inh: less growth of the S. pombe RE007 Vpr strain. AID 651644. S. pombe RE007 Vpr strain, BacTiter-Glo ATP luminescence, 24 h; control for the full effect not named in the record. Potency, µM (highest dose often 92.2 µM), inactives show at the top dose activity change, negative = less growth. actives 0.21% (n = 360,000); active = well fitted falling curve with a large enough effect; inconclusive = small, poorly fitted or top-dose-only effect; inactive = no such curve, though single readings can be large or run the other way;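 further: on the % scale 0 is the no-effect control and ±100 the full control effect; nearly all actives have a fitted effect of over 50% in size; the assay follows cell death caused by Vpr and the record does not say whether a fall means rescue or toxicity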
#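 Fission yeast strain RE007, carrying one chromosomally integrated HIV-1 vpr copy, was seeded at OD 0.01 in PMG+AL medium with 23 nL pinned compound. After 24 h at 30 °C and 99% humidity, viability was read by BacTiter-Glo luminescence.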
# The depositor's hits bear a star; ? = inconclusive; . = no result given; & = joins results of further samples; [ ] = dose if it differs, or a comment. Unless noted, the call rests on the fitted dose curve; in most records, active means well fitted curve in the direction sought with a large enough effect; inconclusive means small, poorly fitted or top-dose-only effect, or another doubt; inactive means no such curve, though single readings can be large; an effect the other way counts as inactive or inconclusive. Potency means the concentration at half of the fitted maximal effect. Compounds as they come. About 4.6% of those tested had a hit in this group.
SMILES,2A StopGo,Cruzain inh Det,Cruzain noTriton,SARS PLpro yeast,Lassa entry inh,Marburg entry inh,NS1 inh,RE007 growth inh
Clc1ccc2[nH]c(-c3ccccc3)cc2c1,-22%,-10%,?,-24%,?,-20%,-68%,?
C(=C\c1nnc2c3ccccc3ncn12)/c1ccccc1,-5%,4.5%,?,-10%,?,?,-45%,0%
CCCCc1nnc(NC(=O)Cn2cnc3ccccc3c2=O)s1,-9%,.,.,0%,-19%,-5%,.,1%
O=c1c2ccccc2nc2n1C(CSc1ccc(Br)cc1)CN2 (stereo not drawn),0%,1.3%,-2%,-1%,-14%,-1%[46.1 µM],-9%,-8%
N#CC(=C=[N-])c1nc2ccccc2nc1-[n+]1cccc(NC(=O)c2ccccc2)c1,10%,.,.,0%&1%,.,.,-3%&1%,-5%
C/C(=N\N1CCCCC1c1cccnc1)c1c(O)n(C2CCCCC2)c(=S)[nH]c1=O (stereo not drawn),-29%,-9.8%,6%,-9%,?,15µM*,33%,-18%
CC(NC(=O)c1cnccn1)c1ccc(S(N)(=O)=O)cc1 (stereo not drawn),-19%,.,.,1%,.,.,0%,2%
CN1C(=O)C2(C(C#N)=C(N)Oc3c2oc(CO)cc3=O)c2ccccc21 (stereo not drawn),.,1.8%,7%,0%,-6%,1%,7%,8%
Cc1ccc(C(=O)NCC(=O)N(C)Cc2cccc(F)c2)s1,35%[activator],.,.,7%,?,7%,.,30%
Cc1cc(NC(=O)CSc2ccc(-c3ccc(Br)cc3)nn2)no1,10%,.,.,-6%,.,.,8%,5%
Cc1cc(C)nc(NC(N)=S)n1,-10%,.,.,0%,.,0%,6%,-3%
COc1cc(OC)c(N(C)S(=O)(=O)c2cccc(C(=O)OCC(=O)c3c[nH]c4ccccc34)c2)cc1Cl,8.9µM*,-1.1%,10µM*,4%,?,?,?,5%
O=C1NC(NS(=O)(=O)c2ccccc2)(C(F)(F)F)C(=O)N1c1cccc(Cl)c1 (stereo not drawn),-9%,.,.,-2%,1%[46.1 µM],-4%[46.1 µM],7%,-20%
CC(=O)CCS(=O)(=O)c1ccc(NC(C)=O)cc1,-12%,-3.5%,8%,-3%,3%,-1%,-3%,-6%
CCN(c1ccccc1)C1(O)C(=O)c2ccccc2C1=O,-15%,.,.,1%,1%[46.1 µM],-1%[46.1 µM],.,3%
CCCc1cc(=O)oc2cc(OCc3ccc(OC)cc3)c(Cl)cc12,0%,-7.9%,-1%,18%,.,8%,4%,0%
CCOC(=O)/C=C/C(=O)N1CCN(C(=O)/C=C/C(=O)OCC)CC1,-5%,.,.,-4%,?,12%,-3%,-2%
CC(C)(C)c1ccc(C(=O)N2CCCCCC2=O)cc1,?,-2.9%,-8%,9%,?,?,0%,-6%
Cc1nc2ccc(NC(=O)N3CCSCC3)cc2nc1C,39%[activator],-2.7%,-6%,0%,15%,1%,1%,-4%
CC(=O)Nc1ccc(S(=O)(=O)N(C)CC(=O)NC2CCCC(C)C2C)cc1 (stereo not drawn),-15%,.,.,13%,0%,-10%[46.1 µM],.,-11%
CC12CCC(=O)N1C(C(=O)Nc1ccc(S(=O)(=O)N3CCCCC3)cc1)CS2 (stereo not drawn),-6%,.,.,5%,2%,6%,.,10%
COc1ccc(C/C(N)=N/OC(=O)C(c2ccccc2)c2ccccc2)cc1OC,.,-2.7%,-2%,14%,?,-3%,-6%,1%
Cn1cnnc1SCC(=O)Nc1ccc2nc(SCc3ccccc3F)sc2c1,.,-14%,?,-7%,16%,6%,0%,2%
C=C(C)CNC(=O)CCc1nnc(Cc2cccc(C(F)(F)F)c2)o1,17%,.,.,0%,13%[46.1 µM],?,-7%,-13%
CCOC(=O)c1cccc(NS(=O)(=O)c2cc(-c3cnc(C4CC4)o3)ccc2C)c1,16%,-6.6%,1%,.,-20%[46.1 µM],.,.,.

# Other records follow:
SMILES,2A StopGo,Cruzain inh Det,Cruzain noTriton,SARS PLpro yeast,Lassa entry inh,Marburg entry inh,NS1 inh,RE007 growth inh
O=C(Nc1ccccc1)C(c1ccccc1)c1ccccc1,11%,.,.,1%,?,-8%&-8%[46.1 µM],2%,-2%
COc1cccc(C(=O)N2CCN=C2SC)c1,20%,.,.,0%,-4%,17%[46.1 µM],.,10%
CCOc1cc(C=C2C(=O)NC(=O)NC2=O)ccc1OS(=O)(=O)c1ccccc1,-16%,-3.3%,25%,-1%,1%,-14%,-15%,5%
CC(NC(=O)C(=O)NCCC1=CCCCC1)c1ccccc1 (stereo not drawn),5%,-0.3%,8%,17%,1%,14%,3%,3%
CC1(c2ccccc2Cl)NC(=O)N(CC(=O)NCc2ccc3c(c2)OCO3)C1=O (stereo not drawn),10%,.,.,2%,1%[46.1 µM],-12%[46.1 µM],4%,1%
CCOC(=O)c1ccc(-c2cccc(-c3cc(=O)oc4cc(OC)cc(OC)c34)c2)cc1,10%,0.4%,?,5%,.,.,.,11%
COc1ccccc1C(CCNCc1ccc(N(C)C)cc1)c1ccc(OC(C)C)cc1 (stereo not drawn),?,.,.,-2%,.,.,3%,-9%
O=C(O)c1ccc(Cl)c(NC(=O)C2CCCN2S(=O)(=O)c2cccc3nsnc23)c1 (stereo not drawn),9%,-2.9%,-10%,-2%,4%,3%&13%,3%,8%
CCSC1=C(C#N)C(c2ccccc2C)CC(=O)N1 (stereo not drawn),-28%,0.9%,4%,-6%,7%,13%,1%,3%
Cc1cccc(C)c1NC(=O)C(c1cccs1)N(Cc1ccco1)C(=O)Cn1nnc2ccccc21 (stereo not drawn),-20%,4.3%,1%,4%,-4%,?,-26%,-3%
Cc1ccc2oc(C(F)(F)C(F)F)cc(=O)c2c1,-21%,.,.,0%,14%,?,0%,9%
O=C(C1=C[C@@H](c2ccc(C(F)(F)F)cc2)C[C@@H](OCc2ccc(CO)cc2)O1)N1CCN(Cc2ccccc2)CC1,-29%,.,.,-2%,.,.,-5%,21%
Cc1cccc(C(=O)OCc2cc(=O)n3nc(C4CC4)sc3n2)c1,-6%,-0.5%,-10%,.,15%[46.1 µM],.,.,.
O=S(=O)(Nc1ccc2nc(-c3ccco3)[nH]c2c1)c1ccccc1,45%[activator],-2.7%,5%,-3%,-19%,?,-8%,-14%
Cc1csc(NC(=O)CSc2ncnc3c2cnn3-c2ccccc2Cl)n1,14µM*,-1.7%,-7%,-26%,?,13µM*,-49%,-12%
CC(C)C(=O)N(Cc1cc2ccccc2[nH]c1=O)C(C)(C)C,-3%,4.4%,9%,-9%,11%,-6%,-12%,1%
Cc1onc(-c2c(Cl)cccc2Cl)c1NC(=O)NN(C)C,-8%,.,.,0%,.,.,-2%,2%
CCN(CC)C(=O)c1ccc(Nc2nnc(C)c3ccccc23)cc1,7%,-5.1%,-3%,-27%,5%,-14%,0%,-22%
CC(=O)NC1C(OCCOc2ccc(Cl)cc2C)OC(CO)C(O)C1O (stereo not drawn),0%,.,.,0%,30%[46.1 µM],-3%[46.1 µM],2%,6%
C=CC(=O)N1C/C=C\C(c2ccc(OC)cc2)N(Cc2ccc(F)cc2)C(=O)C1 (stereo not drawn),-22%,.,.,-2%,.,.,-37%,-2%
O=C(Nc1nc(-c2ccccc2)cs1)C1CCCN(S(=O)(=O)c2ccccc2)C1 (stereo not drawn),10µM*,4.7%,20µM*,8%,10µM*,8.2µM*,11µM*,-2%
COc1cccc(C(=O)c2cn(CC(=O)Nc3cccc(C)c3C)c3nc(C)ccc3c2=O)c1,0%,-2.4%,?,.,-2%[46.1 µM],.,.,.
COc1ccc(C(=O)N/N=C2/SCC(=O)N2Cc2ccc3c(c2)OCO3)cc1OC,4%,0.2%,3%,?,-9%,23%,-2%,-3%
Cc1onc(-c2ccccc2Cl)c1C(=O)NC(=S)Nc1ccc(C(C)C)cc1,-8%,.,.,-1%,.,.,15%,-5%
COc1ccc(Cn2nnnc2C(c2ccccc2OC)N2CCC(C(N)=O)CC2)cc1 (stereo not drawn),17%,1.9%,1%,2%,-14%,1%[46.1 µM],-7%,24%
COC(=O)C(CC(=O)Nc1cc(C)ccc1C)Nc1ccccc1OC (stereo not drawn),-21%,4.7%,-10%,7%,-2%,?,1%,16%
O=c1nc2n(c3c1oc1ccccc13)Cc1ccccc1-2,.,-8.2%,-5%,0%,.,.,3%,.
Cc1cccc(NC(=O)CN2C(=S)NC(C)(C)CC2C)c1C (stereo not drawn),12%,-0.4%,-8%,4%,3%,7%,-6%,-7%
COc1ccccc1OCC(=O)NCc1nc(-c2ccccc2)no1,-9%,.,.,1%,?,1%[46.1 µM],-32%,-5%

# A draw from above in order of length of the SMILES, lowest first.
SMILES,2A StopGo,Cruzain inh Det,Cruzain noTriton,SARS PLpro yeast,Lassa entry inh,Marburg entry inh,NS1 inh,RE007 growth inh
Cc1onc(-c2c(Cl)cccc2Cl)c1NC(=O)NN(C)C,-8%,.,.,0%,.,.,-2%,2%
Cc1cccc(C(=O)OCc2cc(=O)n3nc(C4CC4)sc3n2)c1,-6%,-0.5%,-10%,.,15%[46.1 µM],.,.,.
O=S(=O)(Nc1ccc2nc(-c3ccco3)[nH]c2c1)c1ccccc1,45%[activator],-2.7%,5%,-3%,-19%,?,-8%,-14%
COc1ccccc1C(CCNCc1ccc(N(C)C)cc1)c1ccc(OC(C)C)cc1 (stereo not drawn),?,.,.,-2%,.,.,3%,-9%
CC1(c2ccccc2Cl)NC(=O)N(CC(=O)NCc2ccc3c(c2)OCO3)C1=O (stereo not drawn),10%,.,.,2%,1%[46.1 µM],-12%[46.1 µM],4%,1%
O=C(O)c1ccc(Cl)c(NC(=O)C2CCCN2S(=O)(=O)c2cccc3nsnc23)c1 (stereo not drawn),9%,-2.9%,-10%,-2%,4%,3%&13%,3%,8%
CCOC(=O)c1ccc(-c2cccc(-c3cc(=O)oc4cc(OC)cc(OC)c34)c2)cc1,10%,0.4%,?,5%,.,.,.,11%
